# Prx2 Sm inh = Schistosoma Mansoni Peroxiredoxins (Prx2); Potency, µM; S. mansoni Prx2 activity coupled to TGR/GSH (TGR is thioredoxin glutathione reductase), NADPH fluorescence loss, qHTS; some inactives read as strong as hits; Schistosoma mansoni peroxiredoxin 2 (Prx2); 65,000 compounds, 0.07% hits; active means full or partial inhibition curve with a strong effect at the top dose; inconclusive means weaker partial or single-point curve; inactive means no accepted curve; also: series up to 57 µM; many of its hits are not listed in these tables
#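 Prx2 inhibition was measured as reduced NADPH consumption when electrons flowed from NADPH through TGR and glutathione to Prx2 and H2O2. Plates were read kinetically over 8 min; enzyme reagents were held at 4 deg C during dispensing.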
# Anthrax LT inh = qHTS Assay for Anthrax Lethal Toxin Internalization; Cells, anthrax lethal toxin internalization, FRET ratio (460/530); Potency, µM (top dose mostly 40 µM), for inactives: at the highest dose activity change, negative = inhibition, hits mostly inhibitors; 70,000 compounds, 0.67% hits; active = well fitted falling ratio curve with the 530 nm signal flat; inconclusive = other ratio curves, or a change in one channel alone; inactive = flat curves in the ratio and both channels; the % refers to the ratio; also: % is scaled to controls: 0 for no effect and ±100 for the full control effect; nearly all actives have a fitted effect of over 50% in size; tested in ME-180 cells; beta-lactamase reporter
# * = called active by the depositor; ? = inconclusive; . = no result given; & = joins results of further samples; [ ] = dose if it differs, or a comment. Potency is read from the fitted curve at half-maximal effect. The list is partial; the hit share may differ from the screen's.
1) O=C(NCc1ccco1)C(Cc1ccccc1)NS(=O)(=O)c1cccc2nsnc12 (centres undefined)
2) COCCNC(=O)CS(=O)Cc1nc(-c2ccc(Cl)cc2)oc1C (centres undefined)
3) O=S(=O)(c1ccccc1)n1ccc2ccccc21
4) CCOC(=O)COc1ccc(S(=O)(=O)NCCC2=CCCCC2)cc1
5) O=C(O)c1cnn2c1NC(c1cccs1)CC2C(F)(F)F (centres undefined)
6) O=C(O)c1ccccc1CN1CCC[C@@H](C(=O)O)C1
7) CC(Oc1ccccc1Br)C(=O)N1CCc2ccccc21 (centres undefined)
8) Cc1nnn(C23CC4CC(CC(C4)C2)C3)n1
9) CC(C)[C@@H](OCc1ccccc1)[C@H](C)/C=N\O[C@@H](C)c1cn([C@H](CO)Cc2ccccc2)nn1
10) O=C(O)C1CCCCC1C(=O)NCCCc1ccccc1 (centres undefined)
entry no.	1	2	3	4	5	6	7	8	9	10
Prx2 Sm inh	>57	>57	.	>57	.	>57	>57	>57	.	>57
Anthrax LT inh	-8%	-9%	?	-7%	0%	?	-14%	14%	-15%&-9%[8 µM]	?

11) COc1ccc(-n2c(=O)cnc3cnc(Nc4ccccc4)nc32)cc1
12) O=C(C1CCN(S(=O)(=O)c2cccc3cccnc23)CC1)N1CCc2ccccc21
13) O=C(CCNS(=O)(=O)c1ccc2c(c1)CCC(=O)N2)NCc1ccc2c(c1)OCO2
14) Cc1ccc(N(C(C)C(=O)N2CCC(C)CC2)S(C)(=O)=O)cc1C (centres undefined)
15) Cc1ccccc1S(=O)(=O)Cc1ccc(C(=O)NCCCN2CCN(C)CC2)o1
16) COc1ccc(-n2nnc3c(=O)n(CC(=O)N4CCCc5ccccc54)cnc32)cc1
17) Cc1cccc(Nc2ncnc3nc[nH]c23)c1
18) c1ccc2c(c1)nc1n2CCN1CCNC1CCCCC1
19) C[C@@]1(O)C(O)[C@@H](CO)O[C@H]1n1cnc2c(NC3CCCC3)nc(Cl)nc21 (some centres undefined)
20) Cc1cc(OCC(=O)NCCO)cc(C)c1Cl
entry no.	11	12	13	14	15	16	17	18	19	20
Prx2 Sm inh	>57	>57	>57	>57	>57	>57	>57	.	.	.
Anthrax LT inh	?	7%	-2%	10%	?	10%	-24%	4%	-12%	-5%

21) O=C(Cn1cnc2ccccc2c1=O)N1CCN(Cc2ccccc2)CC1
22) CCOc1ccccc1NC(=O)CC1NCCNC1=O (centres undefined)
23) COCCn1c(SCC(=O)Nc2cccc(OC)c2)nnc1-c1ccc(Cl)cc1
24) Cc1ccccc1NC(=O)c1ccc(S(=O)(=O)N(C)C)cc1
25) Cc1c(C(=O)N2CCN(c3ccc(F)cc3)CC2)sc2nc(-c3ccccc3)cn12
26) CCc1nc(SCCO)c2oc3ccccc3c2n1
27) Cc1cccc(Cn2c(=O)c3c(nc4n3CCN4Cc3ccco3)n(C)c2=O)c1
28) CCOc1cc2[nH]c(=O)n(CC3CCC(C(=O)NCCCOC)CC3)c(=O)c2cc1OCC (centres undefined)
29) O=C(c1cnccn1)N(c1ccccc1)C1(C(=O)NC2CCCC2)CCCCC1
30) Cc1nn(C)c(C)c1S(=O)(=O)N(CC(=O)Nc1nccs1)c1ccc(C(C)C)cc1
entry no.	21	22	23	24	25	26	27	28	29	30
Prx2 Sm inh	>57	>57	>57	>57	>57	>57	>57	>57	>57	>57
Anthrax LT inh	6%	-3%	7%	0%	6%	1%	18%	-5%	5%	0%

31) Cc1ccc(C2=CC(c3ccc(N(C)C)cc3)n3nnnc3N2)cc1 (centres undefined)
32) Nc1nc(SCC(=O)c2ccc(Oc3ccccc3)cc2)n[nH]1
33) Cc1[nH]c(N)nc(=S)c1CCC(=O)O
34) C=C1CCO[C@@]2([C@H](O)[C@@](C)(O)CO)NC(=O)[C@]1(O)NC2=O
35) COC(=O)N1CC(c2ccccc2)CC1=O (centres undefined)
36) O=C(CN1CCN(c2ccc(F)cc2)CC1)Nc1cccc(C(F)(F)F)c1
37) O=C(CP(=O)(CO)CO)c1ccc(Cl)cc1
38) COC(=O)[C@H]1C[C@@H]1[C@H](NS(=O)(=O)c1ccccc1)c1ccccc1
39) CC12COC3(C(=O)N4CCN(c5ccccn5)CC4)CC1CCC32C (centres undefined)
40) CC1=C(C(=O)OC2CCCCC2)C(c2cccnc2)n2ncnc2N1 (centres undefined)
entry no.	31	32	33	34	35	36	37	38	39	40
Prx2 Sm inh	>57	>57	>57	>57	>57	>57	>57	>57	>57	>57
Anthrax LT inh	?	?	-5%[8 µM]	-10%[8 µM]	1%	?	-4%	13%	8%	?

41) Cc1sc2nc(SCC(=O)NCCOCCO)n(C)c(=O)c2c1C
42) COC(=O)CCCC[C@H]1SC[C@H]2NC(=O)N[C@]21O
43) CCc1nnc(NC(=O)CSc2nnc(CSc3nc(C)cc(C)n3)n2CC)s1
44) Cc1ccc(-c2nnn(CC(=O)NCC3COCCO3)n2)o1 (centres undefined)
45) CCCn1c(NCc2ccc(C)o2)nc2ccccc21
46) O=C(c1ccccc1)c1ccc(CN2C(=O)c3ccccc3C2=O)o1
47) CCCn1cc(S(=O)(=O)CC(=O)N2CCc3ccccc32)c2ccccc21
48) Cc1cc(C)c2ccc(C)[n+]([O-])c2c1O
49) CCCCCCN1C(=O)C(O)=C(C(C)=O)C1c1ccc(Cl)cc1 (centres undefined)
50) CN(C)S(=O)(=O)c1ccc(C(=O)Oc2ccccc2)cc1
entry no.	41	42	43	44	45	46	47	48	49	50
Prx2 Sm inh	.	>57	>57	>57	>57	>57	>57	>57	>57	>57
Anthrax LT inh	3%	-6%	4%	1%	-2%	-8%	-15%	6%	-1%	-4%

# Entries 1–6, reprinted for reference:
1) O=C(NCc1ccco1)C(Cc1ccccc1)NS(=O)(=O)c1cccc2nsnc12 (centres undefined)
2) COCCNC(=O)CS(=O)Cc1nc(-c2ccc(Cl)cc2)oc1C (centres undefined)
3) O=S(=O)(c1ccccc1)n1ccc2ccccc21
4) CCOC(=O)COc1ccc(S(=O)(=O)NCCC2=CCCCC2)cc1
5) O=C(O)c1cnn2c1NC(c1cccs1)CC2C(F)(F)F (centres undefined)
6) O=C(O)c1ccccc1CN1CCC[C@@H](C(=O)O)C1
entry no.	1	2	3	4	5	6
Prx2 Sm inh	>57	>57	.	>57	.	>57
Anthrax LT inh	-8%	-9%	?	-7%	0%	?

# Going on with the list.
51) Nc1nc(Nc2ccccc2)nc2c1ncn2[C@@H]1O[C@@H](CO)[C@H](O)[C@@H]1O
52) CCc1c(C)sc(NC(=O)c2ccco2)c1C(=O)N1CCCCC1
53) C=C(C)Cn1c(C2CC(=O)N(Cc3ccccc3)C2)nc2ccccc21 (centres undefined)
54) CCOC(=O)C1=C(C)NC(=O)NC1c1cc(C)sc1C (centres undefined)
55) O=c1[nH]c(SCc2ccc(F)cc2)nc2c1cnn2-c1ccc(F)cc1
56) Cc1nc(NC(=O)c2ccccc2)sc1-c1csc(NCc2ccco2)n1
57) c1ccc(-c2ccc(-c3ccc(C4=NCCN4)cc3)o2)cc1
58) O=S(=O)(c1cccc(-c2nnc(-c3ccc(Br)cc3)o2)c1)N1CCCCCC1
59) O=C(Cc1ccccc1)Nc1c2c(nn1-c1cccc(Cl)c1)CS(=O)(=O)C2
60) N#Cc1ccc(CN2CC3(CCN(C(=O)c4ccco4)CC3)C2)cc1
entry no.	51	52	53	54	55	56	57	58	59	60
Prx2 Sm inh	>57	>57	>57	>57	>57	>57	>57	>57	>57	>57
Anthrax LT inh	-3%	-24%	3%	12%	2%	?	?	5%	-8%	8%

61) CN(C)c1nc(Nc2ccccc2)nc(Oc2ccc(=O)[nH]n2)n1
62) O=c1c(CCc2ccccc2)nc2cnc(N3CCNCC3)nc2n1Cc1ccc(F)cc1
63) CN(C)C(=O)Cn1c(SCC(=O)N2CCCc3ccccc32)nc2ccccc21
64) O=C(NCCNC(=O)C1CC2CCC1C2)C1CC2CCC1C2 (centres undefined)
65) COc1cc2ccccc2cc1C(=O)Nc1ccc(N2CCN(C)CC2)cc1
66) O=C1CN(C(=O)COC(=O)Cc2ccsc2)c2ccccc2N1
67) Cc1ccsc1-c1nc(CSCC(=O)NCc2ccc3c(c2)OCO3)c(C)o1
68) CS(=O)(=O)c1ccc2nc(NC(=O)C3COc4ccccc4O3)sc2c1 (centres undefined)
69) COc1cccc(NS(=O)(=O)c2nc3nc(C)cc(C)n3n2)c1
70) Cc1c(N=Cc2ccco2)c(=O)n(-c2ccccc2)n1C
entry no.	61	62	63	64	65	66	67	68	69	70
Prx2 Sm inh	>57	>57	>57	>57	>57	>57	>57	>57	>57	.
Anthrax LT inh	-2%	-21%	7%	?	-19%	-3%	?	-14%	1%	-4%

71) Cc1cc(C(=O)CC#N)c(C)n1-c1ccc(OC(F)F)cc1
72) COC(=O)CCC(=O)c1oc2ccc(Br)cc2c1N
73) CN1C(=O)NC(c2ccccc2)C2=C1CN(Cc1ccco1)C2=O (centres undefined)
74) COC(=O)c1ccc(CSc2ncnc3c2oc2ccccc23)o1
75) O=C(NCc1ccco1)c1cc(-c2ccccc2)c(N2CCOCC2)s1
76) C=CCn1c(SCC(=O)N2CCN(c3ccc(F)cc3)CC2)nnc1-c1ccco1
77) C/C(CCN1CCCCc2nc(C)c(C)cc21)=N\OC[C@@H](O)[C@@H]1O[C@@H]2OC(C)(C)O[C@@H]2[C@H]1O
78) CCc1cc2c(NCCC(=O)O)nc(C)nc2s1
79) CCOC(=O)C1CCCN(C(=O)Cn2cnc3c2c(=O)n(C)c(=O)n3C)C1 (centres undefined)
80) O=C(O)C1(NS(=O)(=O)c2ccc(F)c(Cl)c2)CCCCC1
entry no.	71	72	73	74	75	76	77	78	79	80
Prx2 Sm inh	>57	>57	>57	>57	>57	>57	.	>57	.	>57
Anthrax LT inh	11%	-18%	-2%	8%	15%	-17%	2%[8 µM]	-6%	-20%	14%

81) CN1CCN(C(=O)c2ccccc2NC(=O)Cc2ccccc2)CC1
82) O=S(=O)(Nc1ccc2c(c1)OCO2)c1cccs1
83) CC(=O)C1=C(O)C(=O)N(CCc2c[nH]c3ccccc23)C1c1ccco1 (centres undefined)
84) COc1ccccc1-c1nc(C#N)c(N2CCN(c3ccccc3)CC2)o1
85) N#Cc1cnn(Cc2ccccc2)c1N
86) CCN1CCN(Cc2cc(=O)oc3cc(C)cc(C)c23)CC1
87) O=C(CSc1ncnc2c1cnn2-c1ccccc1Cl)N1CCN(C(=O)c2ccco2)CC1
88) CN(C)C(=O)N1CCC(C(=O)NCc2ccc(F)cc2Cl)CC1
89) O=C(Cn1ncc2c(=O)oc3ccccc3c21)N1CCN(c2ccccn2)CC1
90) CCC[C@@H]1O[C@@H]2C[C@@H]3[C@H]4CCC5=CC(=O)C=C[C@@]5(C)[C@H]4[C@H](O)C[C@@]3(C)[C@@]2(C(=O)CO)O1
entry no.	81	82	83	84	85	86	87	88	89	90
Prx2 Sm inh	.	>57	>57	.	>57	>57	>57	>57	>57	>57
Anthrax LT inh	-8%	2%	1%	-10%	?	?	-11%	?	-7%	0%[3.58 µM]

91) COc1ccc(S(=O)(=O)Cc2ccccc2)cc1N
92) COCCNC(=O)c1c(N)sc2c1CCCC2
93) CCOC(=O)c1cnc2c(-c3ccccc3)c(C)nn2c1N
94) Cc1ccc(S(=O)(=O)OC2CCN(C)CC2)cc1
95) COc1ccc(CCC(=O)N2CC(C)OC(C)C2)cc1 (centres undefined)
96) CSc1nc(N)c2ncn([C@H]3O[C@H](COP(=O)(O)OP(=O)(O)O)[C@@H](O)[C@@H]3O)c2n1
entry no.	91	92	93	94	95	96
Prx2 Sm inh	>57	>57	>57	>57	>57	>57
Anthrax LT inh	3%	?	-5%	-6%[8 µM]	?	?

# Retrieved by structure from above:
14) Cc1ccc(N(C(C)C(=O)N2CCC(C)CC2)S(C)(=O)=O)cc1C (centres undefined)
96) CSc1nc(N)c2ncn([C@H]3O[C@H](COP(=O)(O)OP(=O)(O)O)[C@@H](O)[C@@H]3O)c2n1
52) CCc1c(C)sc(NC(=O)c2ccco2)c1C(=O)N1CCCCC1
82) O=S(=O)(Nc1ccc2c(c1)OCO2)c1cccs1
25) Cc1c(C(=O)N2CCN(c3ccc(F)cc3)CC2)sc2nc(-c3ccccc3)cn12
61) CN(C)c1nc(Nc2ccccc2)nc(Oc2ccc(=O)[nH]n2)n1
entry no.	14	96	52	82	25	61
Prx2 Sm inh	>57	>57	>57	>57	>57	>57
Anthrax LT inh	10%	?	-24%	2%	6%	-2%

# Source: PubChem BioAssay (National Center for Advancing Translational Sciences (NCATS))
